# RanGTP-Imp inh = inhibitors of RanGTP-importin-beta interaction, primary screen, biochemical, FRET, CFP-Ran, YFP-importin-beta, homogeneous; cell-free CFP-Ran/YFP-importin-beta FRET ratio; inhibition, % (test concentration not listed); 1.1% of 300,000 active;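 active = most replicates above 15%; inconclusive = exactly half above 15%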;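 also: 0% = DMSO wells and 100% = Ran loaded with GDP instead of GTP; wells of about 40 µL received 100 nL stock; the first replicate is given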
# Vif A3G = inhibitors of Vif binding to APOBEC3G peptide, primary screen, biochemical, TR-FRET, GST-Vif 1-94, biotin-A3G peptide, dose response retest (AID 1117319); TR-FRET GST-Vif / biotin-A3G peptide binding; higher % means a stronger effect; test concentration not given here; strong numbers were not always called active; one-dose inhibition, %; IC50 in µM for titrated hits; 0.57% of 260,000 active;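 active = above the screen mean plus three standard deviations and confirmed in dose response; inconclusive = results disagree or hit not tested in dose response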;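 also: Vif residues 1-94 fused to GST binding biotinylated APOBEC3G peptide 110-148; 0% = full assay without inhibitor and 100% = GST in place of GST-Vif; retest series ran down from 100 µM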
# Calb FLC = affects C. albicans growth with fluconazole | C. albicans CaCi-2 (fluconazole-resistant clinical isolate) + fluconazole, Alamar Blue growth, 48 h | 0.57% of 300,000 active | growth inhibition, % (test concentration not listed);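 active = most replicates above 75%; inconclusive = exactly half above 75%; inactive = most below 75%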;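 also: all wells also contain fluconazole at 8 µg/ml as a sub-toxic cotreatment; 0% = median of DMSO wells and 100% = median of geldanamycin control wells; wells of about 8 µL received 7.5 nL stock; the first replicate is given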
# Beta cell apopt = beta cell apoptosis inhibition | protection from apoptosis, % (no concentration beside the values) | INS-1E cytokine-induced death, ATP luminescence, 48 h; percent of positive-control rescue, neutral wells zero | 0.8% of 300,000 active;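 active = all replicates at 75% or more, or half of them and the mean; inconclusive = half reach 75% but not the mean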;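 also: 0% = cytokine-treated negative control wells and 100% = positive control rescue; higher means more ATP so stronger rescue from cytokine killing; wells of about 40 µL received 100 nL stock; the first replicate is given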
# MLL AF4-AF9 inh = MLL-AF4/AF9 protein interaction inhibition | P42568 | AlphaScreen, biotin-AF4 peptide binding to FLAG-AF9 | inhibition, % at 10 µM | 0.47% of 350,000 active | AID 651704;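 active = every replicate reaching a set inhibition limit, whatever the replicate mean, cut at about 25% in these data; inconclusive = mean inhibition reaches that limit but some replicates miss it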;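 also: 0% = plate neutral control median and 100% = total signal loss; the record names both 10 and 1 µM as test concentration; the first replicate is given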
# Target sequence (P42568 whole entry, looked up): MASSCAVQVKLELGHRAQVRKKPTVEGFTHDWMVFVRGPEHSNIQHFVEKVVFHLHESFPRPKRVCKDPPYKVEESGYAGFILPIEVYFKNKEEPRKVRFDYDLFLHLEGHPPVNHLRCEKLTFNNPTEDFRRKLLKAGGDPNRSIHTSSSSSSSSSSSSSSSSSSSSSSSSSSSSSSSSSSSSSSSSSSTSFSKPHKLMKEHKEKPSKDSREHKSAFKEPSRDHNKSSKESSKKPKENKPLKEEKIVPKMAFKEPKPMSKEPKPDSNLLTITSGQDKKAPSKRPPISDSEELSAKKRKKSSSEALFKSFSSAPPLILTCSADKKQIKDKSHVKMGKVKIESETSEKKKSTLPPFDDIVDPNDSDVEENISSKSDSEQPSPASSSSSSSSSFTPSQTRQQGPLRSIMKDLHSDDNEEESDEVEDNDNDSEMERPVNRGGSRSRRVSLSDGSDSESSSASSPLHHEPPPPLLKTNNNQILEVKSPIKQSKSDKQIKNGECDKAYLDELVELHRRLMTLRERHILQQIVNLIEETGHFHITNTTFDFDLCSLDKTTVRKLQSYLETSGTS
# T cruzi repl = T. cruzi replication inhibition. T. cruzi beta-gal in NIH3T3, luminescence, 90 h. inhibition, % (concentration not given with the values). 1.4% of 300,000 active. AID 1885;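 active = mean inhibition across valid replicates above about 55%, limit read from the data; inconclusive = mean below that limit but half or more replicates reach it; inactive = mean below it, under half of replicates reach it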;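 also: signal also drops with host cell toxicity which is not excluded here; 0% = plate median of DMSO wells and 100% = zero luminescence signal; higher percent means less beta-gal luminescence so fewer parasites; stock transfer was 50 nL into about 50 µL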
# LANA-H2B inh = blocks KSHV LANA binding to histone H2A/H2B | cell-free LANA-H2A/H2B peptide, fluorescence polarization | 0.6% of 320,000 active | Q9QR71 | inhibition, % (test concentration not listed); in the data active = inhibition mostly above about 10%, no sharp cut-off; inactive = mostly below about 6.7%;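 also: stock transfer was 7.5 nL into about 10 µL; 0% = median of vehicle wells and 100% = median of positive control wells; one replicate is shown; the record names a cut of 25% in any replicate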
# A1 inh = inhibitors of the anti-apoptotic protein A1, read as caspase activation. 0.066% of 330,000 active. caspase activation, % (test concentration not listed). MEF A1-2A-BIM cells, Caspase-Glo 3/7 luminescence, 3 h; percent of clofoctol response, vehicle zero;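 active = over half of replicate activation scores above 10%, or exactly half above 10 with the replicate mean above 10; inconclusive = replicate mean below 10 yet half the replicates above 10; inactive = over half of replicates below 10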;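 also: wells of about 30 µL received 50 nL stock; many hits fall short of the cut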
# An asterisk follows results filed as active; i = inactive; ? = inconclusive; nt = not tested or not shown; & = joins results of further samples. Compounds as they come. Share with any hit: about 4.3%.
SMILES	RanGTP-Imp inh	Vif A3G	Calb FLC	Beta cell apopt	MLL AF4-AF9 inh	T cruzi repl	LANA-H2B inh	A1 inh
COc1ccc(NC(=O)c2sc3nc(-c4cccnc4)ccc3c2N)cc1	-88	3%	0	5	-3.7	-3	6.0	0.1
COc1ccc(C(=O)NC2=NCCS2)cc1	-3.3	nt	-8	-1	-1.5	-4	5.1	-1.7
CCN1C(=O)N/C(=C/c2cc(C)n(Cc3ccccc3)c2C)C1=O	-2.8	30%	3	-13	0.2	10	4.6	-0.7
COc1ccccc1NC(=O)COC(=O)c1ccccc1SCC(=O)N1CCCC1	nt	nt	4	8	-4.3	-14	-4.7	-0.8
CCCn1c(SCC(=O)N2CCN(c3ccccc3)CC2)nc2ccccc2c1=O	-2.5	28%	-16	-4	nt	20	-1.5	0.3
OCCCCNCc1cc(Br)ccc1OCc1ccccc1	6.9	14%	-7	4	4.2	4	-0.9	-0.3
Cc1c(C)c2ccc(OCc3ccc(C(=O)O)o3)c(C)c2oc1=O	-4.1	33%	1	0	nt	-17	-0.9	-3.1
COc1ccc(Cc2nc3ccc(S(N)(=O)=O)cc3[nH]2)cc1OC	0.9	-5%	0	-2	nt	-18	1.9	-0.4
CCOC(=O)N1CCN(Cc2ccccc2F)CC1	2.1	1%	-1	-2	3.1	9	-0.3	-1.0
Cc1ccccc1-n1nc(C)c2c(C(=O)NN)cc(-c3ccncc3)nc21	0.2	8%	-3	-4	3.0	0	0.5	-0.5
O=C1c2ccc(Oc3cccc([N+](=O)[O-])c3)cc2C(=O)N1c1ccccn1	nt	7%	4	-4	-1.4	-14	0.5	2.3
Nn1c(Cc2cccc3ccccc23)nnc1SCc1c(Cl)cccc1Cl	?	14%	3	-8	nt	6	0.7	-0.1
CCOC(=O)C1(CC2CCCCO2)CCN(C(=O)Nc2ccc(C(=O)OC)cc2)CC1 (stereo not given)	-4.0	5%	2	-1	-3.7	-2	-0.8	-0.4
CN(C)CCCN(C(=O)c1cc2cc([N+](=O)[O-])ccc2s1)c1nc2cc3c(cc2s1)OCCO3	1.2	nt	-20	nt	14	63*	1.6	8.4*
Cc1cc(C)c(S(=O)(=O)N2CCC(C(N)=O)CC2)cc1C	-3.3	0%	-3	2	nt	-5	7.0	1.1
Cc1cccc(NS(=O)(=O)c2ccc3oc(=O)ccc3c2)c1C	?	nt	-2	1	1.2	-20	7.7	-1.5
COc1cccc(-c2csc(N3CCN(C(=O)Nc4ccc(Cl)cc4)CC3)n2)c1	2.9	3%	0	11	-1.7	4	-1.0	0.0
Cn1c(SCC(=O)NCC2CCCO2)ncc(C(=O)Nc2ccc(Cl)cc2)c1=O (stereo not given)	5.6	-76%	-1	-5	4.9	-15	-1.1	-7.5
CCOc1ccc2nc(NC(=O)CSc3nnnn3C3CCCCC3)sc2c1	-1.0	-6%	6	-7	nt	56*	-3.5	0.4
CN(C)C(=O)c1cc(C(=O)c2ccc(F)cc2C(F)(F)F)c[nH]1	7.8	-3%	-5	5	1.3	1	0.9	0.0
CCn1c(COc2ccc3c(c2)OCO3)nnc1SCC(=O)O	1.9	-4%	7	-4	nt	-9	-7.6	-0.6
O=C(Nc1ccc(Br)cc1)C1CCN(C(=O)c2ccco2)CC1	4.6	0%	-1	2	0.0	-7	0.3	-0.2
CCn1cc(CN2CCC(n3nccc3NC(=O)Cc3ccccc3)CC2)c(C)n1	5.8	nt	-2	-3	-4.0	-2	1.8	0.4
CCOC(=O)c1cc(C#N)c(C)nc1N(CC)CC	1.1	-10%	2	0	11	-18	-3.2	-0.3
COc1ccc(C(C(=O)NC(C)(C)C)N(C(=O)Cn2nnc3ccccc32)c2cccc(C(C)=O)c2)cc1O (stereo not given)	1.9	-2%	6	-2	-0.1	-3	-0.9	0.1
COc1cc(C(=O)OCCN2CCCCC2)ccc1O	-2.7	45µM*	-6	2	nt	0	1.9	-0.2
Cc1cc(Cl)cc(C)c1OCCNCc1ccccc1	?	nt	-15	5	4.3	-3	2.6	0.7
COc1ccccc1NC(=O)CNC(=O)Cn1cnc2sc(C)c(C)c2c1=O	-0.7	nt	-3	1	1.6	-7	3.4	0.7
CCS(=O)(=O)Nc1cccc(C2=NN(C(C)=O)C(c3cccs3)C2)c1 (stereo not given)	3.0	nt	-1	3	-0.2	-11	2.4	-0.4
COc1cc(S(=O)(=O)N2CCCCC2)ccc1NC(=O)c1ccncc1	6.8	nt	-1	4	-5.7	5	-4.0	0.0
O=C(/C=C1\NC2(CCCC2)Cc2ccccc21)C(=O)N/N=C/c1ccc(O)c(O)c1	-5.7	nt	-3	1	3.9	3	0.9	0.4
COc1cc(NC(=O)CN2c3cccc4cccc(c34)S2(=O)=O)cc(OC)c1OC	-4.5	4%	-5	6	nt	-9	-0.2	-0.5
CC(C)(C)NC(=O)Cn1c(SCC(=O)NCc2cccs2)nc2ccccc21	?	-8%	32	-7	nt	1	3.5	0.5
Cc1ccc(NC(=O)C(c2ccccc2)c2ccccc2)nc1	-0.8	nt	-22	-12	1.1	10	2.4	-0.2
CC(=O)Nc1cccc(OCC(O)Cn2cnc3ccccc32)c1 (stereo not given)	-1.0	2%	11	2	nt	0	4.9	0.2
CCC(C(=O)OCC(=O)Nc1c(Cl)cccc1Cl)c1ccccc1 (stereo not given)	-2.9	nt	4	-4	-1.4	-3	2.4	0.0
COc1ccc(C(=O)/C=C/c2ccc(OC)c(CN3CCOCC3)c2)cc1	1.6	8%	11	-30	nt	0	-0.3	0.3
CN(Cc1ccccc1)C(=C(Cl)Cl)/C(=C1/NCCN1C)[N+](=O)[O-]	0.2	6%	-5	-2	-0.4	-2	1.1	0.7
CC(C)(C)c1ccc(CNC(=O)C2CCCN2C(=O)Nc2ccccc2)cc1 (stereo not given)	2.0	-15%	1	-1	1.2	13	3.6	0.3
Cc1cccc(C)c1NC(=O)CN(C)C(=O)C1=COCCO1	nt	-8%	nt	3	2.2	nt	3.9	0.8
CC(=O)Nc1ccc(Nc2ccccc2)cc1	3.2	nt	-4	-2	9.6	-16	1.4	0.2
O=C(c1ccc(Br)cc1)N(c1ccccn1)C1CCCCC1	-1.2	3%	0	0	0.0	4	-7.7	-0.1
CCCCn1c(N)c(N(CC)C(=O)c2ccncc2)c(=O)[nH]c1=O	nt	-6%	nt	0	0.4	nt	4.8	0.3
COc1cc(NC(=O)c2cnc(NCc3ccccc3)nc2C)cc(OC)c1OC	-1.1	1%	12	4	3.6	-10	4.0	-1.3
CCOC(=O)c1cccc(NC(=O)CCCn2c(=O)c3cccn3c3cccnc32)c1	0.9	9%	-27	3	-0.6	5	-0.2	-1.3
O=C(/C=C/c1ccc(Br)cc1)c1ccc(NC(=O)c2ccco2)cc1	1.3	?	-6	-3	nt	-30	0.1	-0.4
Cc1ccc(S(=O)(=O)N2CCN(C(=O)CN3CCOCC3)C2C(C)C)cc1 (stereo not given)	4.9	-1%&-3%	-1	3	nt	-6	5.3	-2.3
CC(=O)Nc1ccc(S(=O)(=O)N2CCCC2C(=O)Nc2ccc(F)cc2)cc1 (stereo not given)	0.0	-3%	6	nt	-1.3	-9	nt	nt
CCCn1c(SCC(=O)Nc2nnc(CC)s2)nnc1-c1ccncc1	3.7	nt	-24	2	-2.9	7	-2.2	0.5
CC(=O)OC1COC(n2c(O)c(N=NC(N)=S)c3ccccc32)C(OC(C)=O)C1OC(C)=O (stereo not given)	-2.3	nt	4	-6	1.2	4	2.9	0.8
NC(=O)Cc1nc2scc(-c3ccccc3)c2c(=O)[nH]1	9.3	nt	0	-3	-5.6	-11	-0.6	2.9
N#Cc1c2n(c3c(=O)n(Cc4ccccc4Cl)cnc13)CCCC2	1.8	10%	4	6	nt	18	-3.8	-0.6
O=S(=O)(c1cccc2cccnc12)N1CCN(Cc2ccc3c(c2)OCO3)CC1	1.8	6%	-10	2	nt	15	-4.4	-0.8
CCOC(=O)Cn1ccc(NC(=O)COc2ccc(F)cc2)n1	2.5	5%	-9	-5	6.8	-4	3.7	0.0
CCN(/C=N/c1sc2c(c1C#N)CCCCC2)CC	-3.0	17%	-20	0	nt	nt	1.2	-2.5
COc1ccc(Cl)cc1N(CC(=O)N/N=C/c1ccc(OCC(N)=O)cc1)S(C)(=O)=O	0.7	-14%	7	3	0.2	1	0.2	-0.2
COCCn1c(=NC(=O)CN2C(=O)CCC2=O)sc2cc(S(N)(=O)=O)ccc21	3.3	4%	-2	-12	nt	1	1.5	1.7
Cc1ccc(NC(=O)c2sc(Cl)nc2-c2ccccc2)cc1	1.9	-54%	6	7	nt	2	1.7	0.0
Cc1cc(OCC(=O)Nc2ccccc2N2CCOCC2)c(C(C)C)cc1Cl	nt	14%	nt	0	0.1	nt	i	-0.6
CC(C)(C)C(=O)CN1C(=O)NC2(CCCc3ccccc32)C1=O (stereo not given)	1.9	-3%	0	0	0.7	-10	-3.9	-0.5

# (further entries)
SMILES	RanGTP-Imp inh	Vif A3G	Calb FLC	Beta cell apopt	MLL AF4-AF9 inh	T cruzi repl	LANA-H2B inh	A1 inh
COc1ccc(CCNC(=O)C(=O)NCCC2CCCCN2S(=O)(=O)c2cccs2)cc1 (stereo not given)	1.0	3%	6	nt	-0.4	2	-0.7	0.5
COc1ccc(NC(=O)COC(=O)c2ccc(OCc3ccccc3Cl)c(OC)c2)c(OC)c1	2.8	10%	0	-3	nt	-8	3.9	-3.0
Cc1cccc(-n2c(N)c(C(=O)NCCN3CCOCC3)c3nc4ccccc4nc32)c1	85*	10%	9	3	nt	0	-5.7	0.2
CCc1nnc(NC(=O)C2CCN(c3nccc(C)n3)CC2)s1	-0.7	31%	7	-1	nt	-6	-4.9	0.5
CC(O)CSc1nc2c(c(=O)[nH]c(=O)n2C)n1CC(O)COc1ccccc1 (stereo not given)	-0.5	-4%	5	nt	-4.6	-1	11	0.7
CC(C)c1cc(C(=O)O)n[nH]1	3.8	16%	1	1	nt	-10	-1.2	-0.6
Cc1cc2c(cc1C)C(c1ccsc1)CC(=O)N2 (stereo not given)	-3.5	nt	-5	-3	-0.9	15	-6.1	1.2
COC(=O)c1c(NC(=O)CSc2nnc(Cn3nnc4ccccc43)n2C)sc(C)c1C	2.8	-6%&-3%	0	-9	-0.4	6	1.6	-0.5
Cc1csc(CN(C)C(=O)C2CCC(=O)N(CCCc3ccccc3)C2)n1 (stereo not given)	1.2	nt	-11	-3	-2.5	-12	-2.6	0.1
Cc1ccc(NC(=O)/C=C/C(=O)O)c(NC(=O)c2ccccc2)c1	1.0	nt	-11	-2	-5.8	-6	1.2	-0.7
CCOc1ccc2oc(C(=O)NC3CC(C)(C)NC(C)(C)C3)c(C)c2c1	-18	nt	37	0	0.2	43	6.4	-0.5
CCOc1ccc(N2C(=O)CC(Sc3nc(O)c(CC)c(=O)[nH]3)C2=O)cc1 (stereo not given)	2.1	nt	2	-2	-5.6	4	-3.8	0.8
Cc1ccc(CNC(=O)C2CCC(=O)N2C(C)C)cc1 (stereo not given)	8.0	2%	-2	-10	-17	-6	-3.9	-0.2

# Screens deposited in PubChem BioAssay by several laboratories.
